PINK1 expr mod: PINK1 expression modulation. hit rate 0.2% among 410,000. Potency, µM (doses to about 76.6 µM), for the others: at the top dose activation (PINK1 increase), usual class: activators. PINK1 immunofluorescence, high-content cytometry, 24 h; active = well fitted activation curve with a large enough effect; inconclusive = small, poorly fitted or top-dose-only effect; inactive = flat fitted curve, though single readings scatter; cell line not stated here;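 also: potency is read from the fitted curve at half-maximal effect; % of control where 0% means no effect; nearly all actives have a fitted effect of over 65% in size; a mitochondrial uncoupler was the plate control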
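PINK1 protein, normally rapidly degraded, was detected by immunofluorescence after 24 hour compound treatment of a stable cell line. Titration data (5 concentrations) came from laser-scanning cytometry, with CCCP-treated wells as controls.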
TRPV1 potentiator: human TRPV1 potentiation. Q8NER1. TRPV1-expressing cells, Fluo-8 calcium influx, capsaicin EC20 potentiation; host cell line not named in the record; control for the full effect not named in the record. potentiation, % at 8.33 µM. hit rate 0.02% among 320,000. AID 540277; active means potentiation above 80%; inconclusive means 30% to 80%; inactive means below 30%; also: 0% is about no effect
Target sequence (Q8NER1 whole entry, looked up): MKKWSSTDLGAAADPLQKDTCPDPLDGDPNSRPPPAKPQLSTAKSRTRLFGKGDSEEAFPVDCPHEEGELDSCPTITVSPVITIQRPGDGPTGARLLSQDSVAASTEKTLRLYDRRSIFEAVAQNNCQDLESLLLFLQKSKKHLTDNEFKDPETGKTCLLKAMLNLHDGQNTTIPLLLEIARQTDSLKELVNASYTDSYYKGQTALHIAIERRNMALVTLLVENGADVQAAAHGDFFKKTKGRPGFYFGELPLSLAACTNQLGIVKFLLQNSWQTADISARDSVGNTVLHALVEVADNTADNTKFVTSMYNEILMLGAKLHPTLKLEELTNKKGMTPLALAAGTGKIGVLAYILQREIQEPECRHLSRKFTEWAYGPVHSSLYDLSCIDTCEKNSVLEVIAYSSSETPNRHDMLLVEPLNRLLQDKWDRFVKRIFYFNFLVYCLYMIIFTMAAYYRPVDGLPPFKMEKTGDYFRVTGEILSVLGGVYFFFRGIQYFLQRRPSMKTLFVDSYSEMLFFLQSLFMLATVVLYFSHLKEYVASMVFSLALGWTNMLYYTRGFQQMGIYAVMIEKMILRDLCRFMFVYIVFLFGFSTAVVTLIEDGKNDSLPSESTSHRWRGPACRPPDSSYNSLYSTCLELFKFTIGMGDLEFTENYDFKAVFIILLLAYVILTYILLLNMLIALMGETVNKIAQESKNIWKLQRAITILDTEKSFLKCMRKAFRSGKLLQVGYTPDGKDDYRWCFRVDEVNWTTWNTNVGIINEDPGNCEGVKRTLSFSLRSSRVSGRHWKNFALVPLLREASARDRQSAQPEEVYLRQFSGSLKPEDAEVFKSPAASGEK
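Fluo-8 calcium influx in TRPV1-expressing cells, kinetic read (ex 480/em 520 nm). Compound added and read 3 min for agonist activity, followed by capsaicin at EC20 final and 2 min further read for enhancement.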
D2 ag: agonists of human D2 dopamine receptor (beta-arrestin) | activation, % (concentration not given with the values) | P14416 | hit rate 0.084% among 360,000 | DiscoveRx PathHunter D2 beta-arrestin, luminescence, 90 min; 100% = 57 uM dopamine signal | AID 624465; in the data active = activation above about 40%; inconclusive = about 15% to 40%; inactive = below about 15%; also: compound concentration not given in the record; the text of the record calls up to 30% inactive
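Agonist mode: compounds alone added to overnight-plated D2 PathHunter cells for 90 min at 37 C, with 57 uM final dopamine (EC100) defining full response. Beta-arrestin recruitment detected by chemiluminescent reagent, read after 1 h at ambient temperature.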
Sfp PPTase inh: blocks B. subtilis Sfp PPTase activity; Potency, µM, for inactives: max response, negative = inhibition, actives largely listed as inhibitors; AID 1490; Q9F4F7; hit rate 3.5% among 310,000; Biochemical Sfp PPTase activity, qHTS; active = well fitted inhibition curve with a large enough effect; inconclusive = small, poorly fitted or top-dose-only effect, or another doubt; inactive = no such curve, though single readings can be large or run the other way;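 also: the enzyme is Sfp with the accession as filed and its product quenches rhodamine fluorescence; potency is read from the fitted curve at half-maximal effect; 0% = enzyme reaction without inhibitor and -100% = no enzyme wells; top concentration of the series not given in the record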
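After 15 min at room temperature with compound, 15 nM Sfp received 5 uM rhodamine-CoA plus 12.5 uM BHQ-2-ybbR (50 mM Hepes pH 7.6, 10 mM MgCl2). Rate came from the fluorescence difference over 30 min, ex 525/em 598 nm.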
D2 PAM: human D2 receptor positive allosteric modulation; P14416; hit rate 0.23% among 360,000; potentiation, % (no concentration beside the values); DiscoveRx D2 beta-arrestin cells, luminescence, 90 min; 100% = 57 uM dopamine signal; active = potentiation of 50% or more; inconclusive = 30% to 50%; inactive = 30% or less;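 also: compound concentration not given in the record; tested on top of an EC20 dose of dopamine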
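PathHunter D2 cells, attached overnight at 37 deg C, received compound in DMSO plus dopamine at EC20 (50 nM final) for 90 min at 37 deg C. Beta-arrestin recruitment was read as luminescence after 1 h with detection reagent at ambient temperature.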
Six1-Eya2 blk: inhibitors of human Six1/Eya2 interaction. AlphaScreen GST-Six1/His-Eya2 binding, biochemical; stronger effect = lower value; control for the full effect not named in the record. Q15475+O00167. activity change, % (concentration not given with the values). hit rate 0.56% among 360,000; in the data active = activity change below about -65%; inconclusive = about -30% to -65%; inactive = above about -30%; also: % is scaled to controls: 0 for no effect and ±100 for the full control effect
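Six1/Eya2 binding was read as AlphaScreen signal after compounds were pinned into GST-Six1 plus His-tagged Eya2 (5X stock 250/500 nM) in pH 8.0 Tris/NaCl/TCEP buffer, beads added, then incubated 1 h, 37 C, dark.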
CtBP-E1A blk: inhibitors of CtBP/E1A interaction. AlphaScreen GST-E1A/His-CtBP binding, 1536-well; stronger effect = lower value; control for the full effect not named in the record. activity change, % (no concentration beside the values). hit rate 0.49% among 340,000; in the data active means activity change below about -65%; inconclusive means about -30% to -65%; inactive means above about -30%; also: % is scaled to controls: 0 for no effect and ±100 for the full control effect; compound concentration not given in the record
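AlphaScreen with 125 nM GST-E1A and 125 nM His-CtBP (5X stocks) in Tris pH 8.0, 300 mM NaCl, BSA, Tween 20, TCEP. Compounds preincubated 2 h at 37 deg C, then glutathione donor/nickel acceptor beads added for 1 h at 37 deg C in dark.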
Numbers without * were called inactive; ? = inconclusive; / = not tested or not shown; & = joins results of further samples; [ ] = dose if it differs, or a comment.

SMILES	PINK1 expr mod	TRPV1 potentiator	D2 ag	Sfp PPTase inh	D2 PAM	Six1-Eya2 blk	CtBP-E1A blk
CCOC(=O)C1(Cc2ccc(OC)cc2)CCN(C(=O)Cc2cccnc2)CC1	0.2%	-23	-2.1	4%	-2	5	1
Cc1ccc(-c2cnc(N)n2C)cc1C	6.6%	4	-9.5	11%	-20	-17	-24
CCc1cccc(C)c1NC(=O)COC(=O)CNC(=O)c1cccs1	2.3%	?	-4.8	/	-5	8	7
CCOC(=O)NC(=O)COC(=O)CCCSc1nc2ccccc2s1	1.2%	0	-3.0	0%	-5	3	1
CCOc1nc(-c2ccc(C)cc2)ccc1-c1noc(COC)n1	2.5%	-2	-2.3	-26%	-1	11	-10
Cc1ccc(NS(=O)(=O)c2c(C)[nH]c(=O)[nH]c2=O)cc1C	0.1%[38.3 µM]	8	-1.6	21%	0	0	8
Cc1ccc(C(=O)N/N=C\c2ccccc2[N+](=O)[O-])cn1	1.7%	3	-6.3	-24%	-9	0	8
O=C(O)CN1C(=O)CSc2ccccc21	1.1%	14	-1.4	10%	-7	6	7
Cc1cc2ccccc2c(=O)n1CC(=O)NCCC1=CCCCC1	5.4%	17	-1.8	-5%	-11	1	9
Cc1cccc(NC(=O)CCS(=O)(=O)c2cccc3nonc23)c1C	11%	-14	-1.3	5%	-5	19	1
C[C@@H](CN1C2=NC[C@H](Cc3ccc(O)cc3)N2C[C@H]1Cc1ccc(O)cc1)NC(=O)CCC1CCCCC1	0.8%	-7	-2.3	-8%	-16	-3	-2
CCN(CCO)C(=O)c1ccc2nc(Cc3ccc(OC)cc3)oc2c1	1.3%	/	-1.6	/	-1	-2	5
COC(=O)C(Cc1cnc[nH]1)NC(=O)C1CCC(=O)N1 (stereo not given)	-0.2%[38.3 µM]	11	5.5	-7%	0	5	5
CC(=O)Nc1ccc(S(=O)(=O)N(Cc2ccccc2)c2ccccc2)cc1	9.1%	2	-2.1	?	-4	-1	-4
O=C(COC(=O)c1cccnc1Cl)Nc1cccc(S(=O)(=O)N2CCCCC2)c1	1.4%	?	-0.4	13%	-6	-8	-2
O=C(CN1C(=O)NC2(CCCC2)C1=O)OCC(=O)c1cccc(Cl)c1	-2.5%	12	-4.1	/	-21	7	8
CC(=O)Nc1ccc(NC(=O)C(C)OC(=O)/C=C/c2cccs2)cc1 (stereo not given)	1.0%	?	1.5	6%	4	-4	-7
O=[N+]([O-])C1=CC=C2C(=NC3(CCCCC3)N2O)C1=NCCO	-0.7%	1	1.0	40µM*	?	-7	-29
CCCC(=O)N1CCCC(c2nc(-c3cccc(OC)c3)no2)C1 (stereo not given)	0.4%	-2	6.4	19%	-6	1	/
COc1ccccc1OCC(=O)N(Cc1nc(-c2ccc(Cl)cc2)no1)C(C)C	7.7%	/	-6.0	-5%	9	-2	2
COc1cc(/C=C/C(=O)NC(C)CCc2ccccc2)cc(OC)c1OC (stereo not given)	4.0%	8	2.5	-14%	-12	3	3
O=[N+]([O-])c1cc(-n2cccc2)ccc1N1CCOCC1	-1.0%	13	3.1	4%	-3	?	3
CCCCNS(=O)(=O)c1ccc(S(=O)(=O)n2cnc3ccccc32)cc1	5.8%[38.3 µM]	-4	1.8	26%	-3	2	4
CC(C)NS(=O)(=O)c1ccc(OCC(=O)Nc2ccc3c(c2)OCCO3)cc1	/	2	-1.2	9%	-5	-2	-13
N#Cc1ccc(-c2ccc(F)cc2)nc1Oc1ccc(Cl)c(Cl)c1	13%	17	1.4	25%	-6	8	0
O=C(COC(=O)C12CC3CC(CC(O)(C3)C1)C2)Nc1ccc(Cl)c(S(=O)(=O)N2CCOCC2)c1	1.2%	/	-1.2	/	1	-10	-15
CCN1C(=O)[C@H]2[C@@H](c3ccc(C)cc3)N3C(=O)N(c4ccc(OC)cc4)C(=O)[C@@]3(C)[C@H]2C1=O	0.8%	-2	-3.7	8%	-8	2	5
CC1=[N+]([O-])C(N2CCOCC2)C(O)(c2ccccc2)C1 (stereo not given)	-3.1%	-9	-3.6	16%	3	-1	0
COC(=O)c1c(C)[nH]c(C(=O)OC(C)C(=O)N2CCOCC2)c1C (stereo not given)	-1.4%	-6	-3.5	/	-2	-4	2
CC(C)(C)OCC(O)CN1CCN(C(=O)c2ccccc2)CC1 (stereo not given)	0.6%	-4	-0.4	-19%	-17	10	-15
Cc1ccc(CNC(=O)CCOc2ccc(C(C)(C)C)cc2)cc1	-2.3%	-5	0.9	3%	-3	2	-3
COC(=O)C1Cc2ccccc2CN1C(=O)CCl (stereo not given)	-0.2%	16	-1.5	8%	-2	-6	-16
O=C(NN=Cc1ccc(O)cc1)c1ccccc1NS(=O)(=O)c1cccs1	-1.5%	/	-2.8	/	-1	-3	-18
COc1cc2c(cc1OC)C(CSc1ccccc1C(=O)O)=NC(C)(C)C2	-0.6%	-7	-4.2	2%	-12	-15	1
Cc1ccc2ccccc2c1C(O)c1ncc(-c2ccccc2F)[nH]1 (stereo not given)	0.7%	/	-2.1	/	-9	-11	-1
CCOCCCn1cnc2c3cc(F)ccc3n(C)c2c1=O	0.2%	23	1.1	1%	11	-5	/
COC(=O)CCC(=O)N1CCOCCOCCOCC1	-1.7%	2	-2.9	27%	-4	-9	2
COc1ccccc1Cc1c(C2CCCCC2)nc2ccc(C)cn12	?	/	-2.4	/	-10	-15	0
COc1cc2c(cc1OC)CN(C(=O)CSc1nc(N)c(C#N)cc1C#N)CC2	-3.6%[38.3 µM]	2	1.2	2%	-11	-12	-16
COc1ccc(OCc2cc(/C=N\NC(=O)c3ccccc3)ccc2OC)cc1	1.4%	7	2.4	-9%	5	-10	-4
CC(C)C(NC(=O)c1ccccc1Cl)C(=O)OCc1nc2scc(-c3ccccc3Cl)c2c(=O)[nH]1 (stereo not given)	-2.7%	?	-0.9	16%	-19	5	7
CC(C)C(=O)Nc1ncc(Cc2cccc(Cl)c2)s1	1.8%	-14	3.4	5%	-2	2	3
CCOc1ccc(-n2nnc3c(=O)n(CC(=O)c4ccccc4)cnc32)cc1	4.0%	-12	-3.7	11%	-8	1	2
CC(C)CC(c1nnnn1C(C)(C)C)N1CCN(Cc2ccccc2)CC1 (stereo not given)	-2.0%	2	-6.2	8%	-13	-6	-9
COc1ccccc1C(=O)N/C(=C/c1ccc(Br)cc1)C(=O)NCCCn1ccnc1	-0.3%	?	-4.3	14%	-16	-3	-5
COc1ccc(C2SCC(=O)N2c2nc3ccccc3s2)cc1 (stereo not given)	0.9%	11	6.3	-3%	-3	1	/
O=C1Cc2ccccc2Sc2ccc(O)cc21	-1.5%	17	-2.7	0%	-8	6	10
O=C(CSCc1ccc(Cl)cc1)Nc1cccc(C(=O)Nc2ccccc2C(=O)O)c1	-1.3%	14	-1.7	27%	6	-21	-3
O=C(NCC1CCCO1)c1cccc(NC(=O)c2ccccc2)c1 (stereo not given)	1.1%	-10	1.0	3%	0	-6	-17
C=C(C(=O)c1ccccc1)C(C)CC(=O)c1ccccc1 (stereo not given)	2.4%	-18	-2.0	-6%	-8	-10	-22

Single records (already shown). Order of values: PINK1 expr mod, TRPV1 potentiator, D2 ag, Sfp PPTase inh, D2 PAM, Six1-Eya2 blk, CtBP-E1A blk
`CC(C)C(NC(=O)c1ccccc1Cl)C(=O)OCc1nc2scc(-c3ccccc3Cl)c2c(=O)[nH]1` (stereo not given) as listed: -2.7%, ?, -0.9, 16%, -19, 5, 7
`O=C(CSCc1ccc(Cl)cc1)Nc1cccc(C(=O)Nc2ccccc2C(=O)O)c1` as listed: -1.3%, 14, -1.7, 27%, 6, -21, -3
`CC(C)CC(c1nnnn1C(C)(C)C)N1CCN(Cc2ccccc2)CC1` (stereo not given) as listed: -2.0%, 2, -6.2, 8%, -13, -6, -9
`CCOc1ccc(-n2nnc3c(=O)n(CC(=O)c4ccccc4)cnc32)cc1` as listed: 4.0%, -12, -3.7, 11%, -8, 1, 2

Next results follow.
SMILES	PINK1 expr mod	TRPV1 potentiator	D2 ag	Sfp PPTase inh	D2 PAM	Six1-Eya2 blk	CtBP-E1A blk
CCN1CCN(c2ccccc2NC(=O)c2ccc(-n3cccn3)cc2)CC1	-1.5%	5	4.4	/	-1	-1	-5
O=C(c1cc(COc2ccc(F)cc2Cl)on1)N1CCN(c2cnccn2)CC1	-1.9%	-14	-3.2	2%	0	-11	4
Cc1cc(C)c(C(=O)c2ccccc2)c(C)c1	10%	/	-4.8	/	-4	13	24
C[n+]1ccccc1/C=N/O	1.4%&1.3%	5&13	-1.6&-2.4	11%&24%&-15%	5&5	3&-2	0&3
COc1ccc(C(=O)NCC(=O)N2CCNC(=O)C2)cc1OC	1.3%	3	-2.9	-2%	-3	6	0
Cc1c(C(=O)OCC(=O)NC(C)c2ccccc2)oc2ccccc12 (stereo not given)	10.0%	-3	1.4	9%	-1	-1	5
Cc1ccc(C(=O)Nc2ccccc2N2CCN(C(=O)C(C)C)CC2)cc1	-1.3%	-15	-3.4	12%	0	5	1
Cc1nc2ccccc2c(=O)n1/N=C/c1ccncc1	-1.9%	-4	0.1	9%	-6	-1	-7
CC1CCCC(NC(=O)COC(=O)/C=C/c2ccc(S(=O)(=O)N3CCOCC3)cc2)C1C (stereo not given)	2.1%	3	-2.5	13%	-3	7	0
CCNC(=O)/C(C#N)=C/c1c(N(Cc2ccccc2)Cc2ccccc2)nc2ccccn2c1=O	-3.4%	-7	-4.3	-16%	-1	-21	-2
COC(=O)c1cccnc1NC(=S)NC1CCCCC1	10%	-4	-0.3	-7%	-9	4	-6
Cc1cc(-c2csc(N)n2)c(C)n1-c1ccc(Cl)c(Cl)c1	4.0%	12	-1.1	-1%	-14	1	7
FC(F)(F)c1ccc(NC(=S)NCc2ccccc2)cc1	?	-4	4.6	4%	2	4	11
FC(F)(F)c1cccc(N2Cc3ccccc3C2)c1	-0.8%	/	2.4	-6%	-1	-1	-2
COc1ccc2nc(SCc3ccccc3C)nc(C)c2c1	0.0%	23	-3.7	?	-11	18	7
CCc1noc(C)c1C(=O)Nc1ccc(S(=O)(=O)N2CCCCC2)cc1	-3.0%	-15	15	/	-8	-3	1
CN(C1(C)CCS(=O)(=O)C1)S(=O)(=O)c1ccc2ccccc2c1 (stereo not given)	-3.3%	3	3.2	/	-70	0	0
COc1ccc(C2/C(=C(\O)c3ccc4c(c3)OCCO4)C(=O)C(=O)N2CCCN(C)C)cc1 (stereo not given)	-0.3%	7	-2.1	9%	1	6	6
COc1ccc(N2CCN(Cc3nc4ccccc4c(=O)[nH]3)CC2)cc1	3.3%[38.3 µM]	-1	-2.1	-5%	-7	-1	2

Screening data (PubChem)
